CtBP-E1A inh: blocks the CtBP interaction with E1A; AID 651724; activity change, % (test concentration not listed); 340,000 tested, 0.49% active; AlphaScreen GST-E1A/His-CtBP binding, 1536-well; active compounds read low; control for the full effect not named in the record; in the data active means activity change below about -65%; inconclusive means about -30% to -65%; inactive means above about -30%; also: % is scaled to controls: 0 for no effect and ±100 for the full control effect
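Homogeneous bead-based format: GST-tagged E1A captured on glutathione donor beads, His-tagged CtBP on nickel acceptor beads; compounds precede bead addition by 2 h at 37 °C.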
D2 potentiator: human D2 receptor positive allosteric modulation. 360,000 tested, 0.23% active. P14416. DiscoveRx D2 beta-arrestin cells, luminescence, 90 min; 100% = 57 uM dopamine signal. potentiation, % (test concentration not listed); active = potentiation of 50% or more; inconclusive = 30% to 50%; inactive = 30% or less;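 also: compound concentration not given in the record; tested on top of an EC20 dose of dopamine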
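PathHunter beta-arrestin assay in DiscoveRx D2 cells. Compounds were added with an EC20 of dopamine (50 nM final) for 90 min at 37 deg C. Luminescence was read 1 h after detection reagent, with 57 uM dopamine as the EC100 control.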
Six1-Eya2 inh: blocks human Six1 binding to Eya2; AID 651725; activity change, % (test concentration not listed); AlphaScreen GST-Six1/His-Eya2 binding, biochemical; active compounds read low; control for the full effect not named in the record; 360,000 tested, 0.56% active; in the data active = activity change below about -65%; inconclusive = about -30% to -65%; inactive = above about -30%; also: % is scaled to controls: 0 for no effect and ±100 for the full control effect
Target sequence (O00167 whole entry, looked up): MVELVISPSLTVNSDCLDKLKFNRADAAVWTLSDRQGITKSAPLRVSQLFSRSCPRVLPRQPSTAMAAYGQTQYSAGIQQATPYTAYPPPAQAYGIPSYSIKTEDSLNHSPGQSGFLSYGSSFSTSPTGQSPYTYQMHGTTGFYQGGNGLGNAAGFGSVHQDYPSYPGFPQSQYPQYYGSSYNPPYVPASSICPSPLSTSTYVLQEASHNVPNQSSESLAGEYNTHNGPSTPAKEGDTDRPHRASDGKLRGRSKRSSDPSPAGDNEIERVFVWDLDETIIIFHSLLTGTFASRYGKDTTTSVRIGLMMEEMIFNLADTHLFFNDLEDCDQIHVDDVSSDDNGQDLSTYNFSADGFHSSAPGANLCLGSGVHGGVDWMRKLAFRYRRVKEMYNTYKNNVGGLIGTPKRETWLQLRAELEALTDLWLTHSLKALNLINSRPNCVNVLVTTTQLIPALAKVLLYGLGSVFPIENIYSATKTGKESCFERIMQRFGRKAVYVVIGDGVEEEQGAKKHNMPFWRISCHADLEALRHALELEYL
Target sequence (Q15475 whole entry, looked up): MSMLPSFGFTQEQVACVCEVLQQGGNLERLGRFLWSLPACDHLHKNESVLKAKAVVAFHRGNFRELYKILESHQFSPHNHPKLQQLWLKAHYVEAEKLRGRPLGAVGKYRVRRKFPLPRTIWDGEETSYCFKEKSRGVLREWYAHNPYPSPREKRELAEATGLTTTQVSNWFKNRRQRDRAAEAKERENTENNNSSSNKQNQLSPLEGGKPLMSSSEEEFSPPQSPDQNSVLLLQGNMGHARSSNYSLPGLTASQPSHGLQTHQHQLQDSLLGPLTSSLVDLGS
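AlphaScreen luminescence read after one hour at 37 °C in darkness. Pin-transferred compounds met GST-Six1 and His-Eya2 protein (5X stock 250 nM/500 nM) plus glutathione donor and Ni-chelate acceptor beads (5X, 50 ug/mL).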
gsp ag: gsp mutant agonism; 340,000 tested, 0.13% active; gsp mutant cells, cAMP HTRF, 30 min; control for the full effect not named in the record; Potency, µM (highest dose often 76.9 µM), for the others: at the highest dose activation (cAMP increase), actives largely listed as activators; active = well fitted activation curve with a large enough effect; inconclusive = small, poorly fitted or top-dose-only effect, or another doubt; inactive = no such curve, though single readings can be large or run the other way; cell line not stated here;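 also: phosphodiesterase inhibitor Ro 20-1724 added with compounds to block cAMP breakdown; potency is read from the fitted curve at half-maximal effect; nearly all actives have a fitted effect of over 60% in size; about a fifth of the inactives were tested at one dose only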
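Cells stably selected in G418 were plated at 2000/well, grown 16-24 hr, then given compounds in DMSO with the PDE inhibitor […] (300 uM solution added) for 30 min at 37C; cAMP was read by HTRF.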
D2 ag: agonists of human D2 dopamine receptor (beta-arrestin). P14416. DiscoveRx PathHunter D2 beta-arrestin, luminescence, 90 min; 100% = 57 uM dopamine signal. activation, % (no concentration beside the values). 360,000 tested, 0.084% active; in the data active = activation above about 40%; inconclusive = about 15% to 40%; inactive = below about 15%; also: compound concentration not given in the record; the text of the record calls up to 30% inactive
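Agonist mode: compounds alone added to overnight-plated D2 PathHunter cells for 90 min at 37 C, with 57 uM final dopamine (EC100) defining full response. Beta-arrestin recruitment detected by chemiluminescent reagent, read after 1 h at ambient temperature.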
gsp antag: antagonists of gsp mutant (McCune-Albright syndrome) | gsp-mutant cells, cAMP HTRF, 30 min; control for the full effect not named in the record | Potency, µM (series often up to 76.9 µM), for inactives: top-dose activity change, negative = inhibition, actives largely listed as inhibitors | 340,000 tested, 0.4% active; active = falling curve of any shape with a large fitted effect; inconclusive = falling curve, mostly with a smaller effect; inactive = flat or rising curve; cell line not stated here;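 also: intracellular cAMP measured with PDE inhibitor Ro 20-1724 present during compound exposure; potency is read from the fitted curve at half-maximal effect; % is scaled to controls: 0 for no effect and ±100 for the full control effect; nearly all actives have a fitted effect of over 65% in size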
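HTRF cAMP read-out (cAMP-d2 plus anti-cAMP antibody-K in lysis buffer, 30 min RT). Before lysis, cells are exposed to compounds with […] for 30 min at 37C in DPBS containing Ca/Mg, BSA and Tween 20.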
* marks the source's active call; other numbers are inactive results; [ ] = another dose, or the depositor's remark.

`CCOc1ccc(S(=O)(=O)N2CCC(C(=O)N3CCc4ccccc4C3)CC2)cc1` gave CtBP-E1A inh 0, D2 potentiator 1, Six1-Eya2 inh -2, gsp ag 2%, D2 ag -0.1 and gsp antag 2%.
`COc1ccccc1NC(=O)CN1C(=O)COc2ccc(S(=O)(=O)N3CCOCC3)cc21` gave CtBP-E1A inh -3, D2 potentiator -12, Six1-Eya2 inh 6, gsp ag inconclusive, D2 ag -6.9 and gsp antag 10%.
Screening O=C(Cc1ccc(Br)cc1)Nc1ccccc1Sc1ccccc1 returned CtBP-E1A inh 16, D2 potentiator -8, Six1-Eya2 inh 35, gsp ag -34%, D2 ag -3.4 and gsp antag -18%.
`CCCCSc1nc2c(cnn2-c2ccccc2)c(=O)n1N` gave D2 potentiator -6, Six1-Eya2 inh 8, gsp ag -10%, D2 ag 1.9 and gsp antag -17%.
Cc1ccc(NC(=O)N(C)c2ccccc2)cc1 was read as CtBP-E1A inh 0, D2 potentiator -4, Six1-Eya2 inh 0, gsp ag -59%[inhibitor], D2 ag 5.9 and gsp antag 9%.
Screening Cn1c(SCC(=O)c2cc(Cl)c(Cl)s2)nnc1-c1ccco1 returned CtBP-E1A inh 21, D2 potentiator -3, Six1-Eya2 inh -10, gsp ag -6%[15.4 µM], D2 ag 2.6 and gsp antag -10%.
CCN(C[C@H]1N[C@@](C)(C(=O)OC)[C@H]2C(=O)N(C)C(=O)[C@@H]12)S(=O)(=O)c1ccc(OC)cc1 was read as CtBP-E1A inh 10, D2 potentiator -2, Six1-Eya2 inh 4, D2 ag -2.7 and gsp antag 4%.
Screening CC(CCc1ccco1)NC(=O)c1cc2c(-c3ccccc3F)nn(C)c2s1 (centres undefined) returned CtBP-E1A inh -23, D2 potentiator 1, Six1-Eya2 inh inconclusive, gsp ag 5%, D2 ag 3.8 and gsp antag -21%.
Screening N/C(=N\OC(=O)c1ccc2c(c1)OCO2)c1cccc(Br)c1 returned CtBP-E1A inh 3, D2 potentiator 106*, Six1-Eya2 inh -13, gsp ag -6%[15.4 µM], D2 ag inconclusive and gsp antag 3%.
For O=C(COC(=O)c1ccco1)NCc1ccc2c(c1)OCO2 the results were CtBP-E1A inh 8, D2 potentiator 6, Six1-Eya2 inh 3, gsp ag -12%, D2 ag 1.5 and gsp antag 10%.
Screening Cc1ccccc1Cn1c(=O)n(CCC(=O)NCc2ccc3c(c2)OCO3)c(=O)c2ccccc21 returned CtBP-E1A inh 10, D2 potentiator -7, Six1-Eya2 inh -1, gsp ag -31%[inhibitor], D2 ag -3.5 and gsp antag 11%.
`O=C(NNc1cc(N2CCCC2)nc(N2CCCC2)n1)c1ccc([N+](=O)[O-])cc1` gave CtBP-E1A inh 0, D2 potentiator -7, Six1-Eya2 inh -2, gsp ag -2%[15.4 µM], D2 ag -1.0 and gsp antag -37%.
Screening CC(=O)Nc1ccc(C(=O)N2CCCCC2c2cc(C(=O)Nc3cccc4c3CCCC4)no2)cc1 (centres undefined) returned CtBP-E1A inh 1, D2 potentiator -3, Six1-Eya2 inh -3 and D2 ag -4.9.
For CCNC(=O)CCS(=O)(=O)c1ccc2ccccc2c1 the results were CtBP-E1A inh -1, D2 potentiator -15, Six1-Eya2 inh 8, gsp ag 27%, D2 ag -3.0 and gsp antag -1%.
CCC(C)Oc1ccc(C(=O)Nc2ccc(CN3CCOCC3)cc2)cc1 (centres undefined) was read as CtBP-E1A inh 8, D2 potentiator -2, Six1-Eya2 inh -2, gsp ag 13%, D2 ag -4.0 and gsp antag 12%.
Cc1noc(C)c1-c1ccc(C(=O)NCc2ccccc2)c2occc12 was read as CtBP-E1A inh -26, D2 potentiator -12, Six1-Eya2 inh inconclusive and D2 ag -5.8.
For O=C(COC(=O)c1ccc[n+]([O-])c1)Nc1ccc(Cl)cc1[N+](=O)[O-] the results were CtBP-E1A inh -1, D2 potentiator 9, Six1-Eya2 inh 3, gsp ag 21%, D2 ag 6.4 and gsp antag -3%.
O=C(c1ccccc1)N1CCN(c2ccc(Cl)cc2)CC1 was read as CtBP-E1A inh 6, D2 potentiator 12, Six1-Eya2 inh 0, gsp ag -10%, D2 ag 3.3 and gsp antag 1%.
`COc1ccc(-c2c(C#Cc3ccsc3)c3cc(-c4ccc5c(c4)OCCO5)ccc3n2C)cc1` gave CtBP-E1A inh 1, D2 potentiator -2, Six1-Eya2 inh -8, gsp ag inconclusive, D2 ag -4.1 and gsp antag 2%.
For Cn1cnc([N+](=O)[O-])c1S(=O)(=O)Nc1ccccc1 the results were CtBP-E1A inh -11, D2 potentiator -13, Six1-Eya2 inh 12, gsp ag -5%, D2 ag -8.5 and gsp antag 4%.
`CCOc1cc2[nH]c(=O)n(CCC(=O)NCc3ccc(OC)cc3)c(=O)c2cc1OCC` gave CtBP-E1A inh -9, D2 potentiator -17, Six1-Eya2 inh -2, gsp ag 6%, D2 ag 4.2 and gsp antag 2%.
Screening CCCCC(=O)Nc1cccc(NC(=S)NC(=O)C(C)C)c1 returned CtBP-E1A inh 2, D2 potentiator -12, Six1-Eya2 inh -1, gsp ag -30%, D2 ag -6.3 and gsp antag 0%.
For C/C(CC1CC2=C(CC1(C)C)C(C)(C)CCC2)=N\NC(N)=S (centres undefined) the results were CtBP-E1A inh 0, D2 potentiator -32, Six1-Eya2 inh -2, gsp ag -32%[inhibitor], D2 ag -9.0 and gsp antag 7%.
Cc1ccc(NC(=O)c2ncn(CC(=O)N3CCN(c4ccccn4)CC3)n2)cc1C was read as CtBP-E1A inh 3, Six1-Eya2 inh 0, D2 ag -2.3 and gsp antag -9%.
`CCCc1c(C(=O)N/N=C/C2CC=CCC2)nnn1-c1nonc1N` (centres undefined) gave CtBP-E1A inh -7, D2 potentiator -5, Six1-Eya2 inh 16, gsp ag inconclusive and D2 ag 0.7.
`CSc1nc(NC(C)=O)nc(C)c1Cl` gave CtBP-E1A inh -2, D2 potentiator 6, Six1-Eya2 inh 3, gsp ag 5%, D2 ag -7.4 and gsp antag 5%.
`C/C=C/C(=O)Nc1cccc(C2=NOC3(C2)C[C@H](C(N)=O)N(C(=O)/C=C/C)C3)c1` (some centres undefined) gave CtBP-E1A inh 5, D2 potentiator -8, Six1-Eya2 inh 1, D2 ag -3.9 and gsp antag 5%.
CC(C)NC(=O)COc1ccc(S(=O)(=O)N(C)Cc2ccccc2)cc1 was read as CtBP-E1A inh 0, D2 potentiator 0, Six1-Eya2 inh 2, gsp ag 7%, D2 ag 0.8 and gsp antag -3%.
NS(=O)(=O)c1ccc(CNC(=O)CCS(=O)(=O)Cc2ccccc2)cc1 was read as CtBP-E1A inh 0, D2 potentiator -13, Six1-Eya2 inh 5, gsp ag -39%, D2 ag -1.6 and gsp antag 8%.
Screening CCn1cc(/C=N/N=C2\CCC3C4CCc5cc(O)ccc5C4CC[C@]23C)c(C)n1 (some centres undefined) returned CtBP-E1A inh 23, D2 potentiator -4, Six1-Eya2 inh 8, gsp ag -2%, D2 ag 3.8 and gsp antag inconclusive.
`CC(C)CC(=O)Nc1nnc(SCC(=O)NCc2ccc3c(c2)OCO3)s1` gave CtBP-E1A inh 0, D2 potentiator 0, Six1-Eya2 inh 16, gsp ag -1%[15.4 µM], D2 ag 3.4 and gsp antag -5%.
Screening c1ccc(OCc2nn3c(-c4ccncc4)nnc3s2)cc1 returned CtBP-E1A inh 2, D2 potentiator -10, Six1-Eya2 inh 5, gsp ag -2%, D2 ag -0.2 and gsp antag 4%.
COc1ccc(S(=O)(=O)N2CCOCC2)cc1NC(=O)COc1ccccc1OC was read as CtBP-E1A inh -19, D2 potentiator -3, Six1-Eya2 inh -30, gsp ag -9%[15.4 µM], D2 ag -0.5 and gsp antag 15%.
Screening CCOC(=O)N1CCN(CC(=O)Nc2ccc([N+](=O)[O-])cc2C(=O)Nc2ccccc2F)CC1 returned D2 potentiator 3, Six1-Eya2 inh -2, gsp ag 10%, D2 ag 1.0 and gsp antag 28µM*.
Cc1ccc(CN2CCCOCCS2(=O)=O)cc1 was read as CtBP-E1A inh 4, D2 potentiator -8, Six1-Eya2 inh 4, gsp ag -31%[inhibitor], D2 ag -2.4 and gsp antag 8%.
CC1(C)CC(=O)C2=C(C1)NC(=O)CC2c1ccc(F)cc1 (centres undefined) was read as CtBP-E1A inh -2, D2 potentiator 14, Six1-Eya2 inh 15, gsp ag 0%, D2 ag 1.4 and gsp antag -2%.
`CCC(=O)NC(c1ccc(N(C)C)cc1)c1c(O)ccc2ccccc12` (centres undefined) gave CtBP-E1A inh -25, D2 potentiator -12, Six1-Eya2 inh -25, gsp ag -6%, D2 ag -9.4 and gsp antag -25%.
FC(F)(F)Oc1ccc(Nc2nc(N3CCOCC3)nc(N3CCOCC3)n2)cc1 was read as CtBP-E1A inh 0, D2 potentiator -11, Six1-Eya2 inh 9, gsp ag 5%, D2 ag -0.4 and gsp antag 0%.
For O=C(CNC(=O)c1cccs1)NCC(=O)OCc1c(F)cccc1Cl the results were CtBP-E1A inh -19, D2 potentiator -3, Six1-Eya2 inh -2, gsp ag 10%[15.4 µM], D2 ag 3.5 and gsp antag 11%.
Screening S=C1NC[C@H](CC2CCCCC2)N1CCc1cccc2ccccc12 returned CtBP-E1A inh -3, D2 potentiator -6, Six1-Eya2 inh -10, gsp ag -22%, D2 ag -0.5 and gsp antag -4%.
COc1ccc(NC(=O)[C@H](C)NS(=O)(=O)c2ccc(NC(C)=O)cc2)cc1Cl was read as CtBP-E1A inh 6, D2 potentiator -10, Six1-Eya2 inh 5, gsp ag 3% and D2 ag -3.6.

Assay outcomes: PubChem, National Center for Advancing Translational Sciences (NCATS)
